CDC25B-CDK2 inh – human CDC25B-CDK2/CyclinA binding inhibition. z-score (no concentration beside the values). 94,000 tested, 0.72% active. AID 1259370. HTRF CDC25B-CDK2/CyclinA binding, anti-His/anti-Flag; hits give high values. P30305+P24941;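 note: score is relative to mean and SD of negative controls; strong numbers were not always called active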
HIV TAR-Tat – HIV-1 TAR-Tat binding disruption; HIV-1 TAR RNA, Tat peptide displacement FRET; hits give high values; z-score (test concentration not listed); 100,000 tested, 0.6% active; AID 1259389;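 note: score is relative to mean and SD of negative controls; some compounds called inactive have numbers as strong as hits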
An asterisk follows results filed as active; x = not tested or not shown.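 Rule for the calls: active = z-score from 3 up in half or more of its runs; inactive = the rest.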

SMILES | CDC25B-CDK2 inh | HIV TAR-Tat
CSc1cccc(NC(=S)NCCNc2c([N+](=O)[O-])cc(C(F)(F)F)cc2[N+](=O)[O-])c1 | -2.2 | x
O=C1OCCC1Sc1nc2sc3c(c2c(=O)[nH]1)CCC3 (centres undefined) | -0.96 | x
Cc1nn(-c2ccc(F)cc2)cc1-c1noc(C(=O)NC2CCC(C)CC2)n1 (centres undefined) | x | 0.59
Cc1ccsc1CCNS(=O)(=O)c1ccc2c(c1)NC(=O)C(C)CS2 (centres undefined) | x | 1.59
Cc1ccc(NS(C)(=O)=O)cc1N=Cc1cc(Cl)cc(Cl)c1O | -2.03 | x
O=S(=O)(Nc1ccc(Oc2ccc(NS(=O)(=O)c3cccs3)cc2)cc1)c1cccs1 | -0.42 | 1.89
OCc1cncn1Cc1ccccc1 | -1.35 | x
O=C1c2cc(S(=O)(=O)Nc3ccccc3)ccc2-c2ccc(S(=O)(=O)Nc3ccccc3)cc21 | -1.07 | -0.3
COCCCNc1nc2c(S(=O)(=O)c3ccc(C)c(C)c3)nnn2c2ccc(Cl)cc12 | -0.35 | 0.05
CCOC(=O)c1c(S(=O)(=O)N2CCCC(C(=O)N3CCOCC3)C2)c(C)n(C)c1C (centres undefined) | x | 2.69
CCN1CCN(c2nc(NCCC(C)C)nc(N)c2[N+](=O)[O-])CC1 | x | 1.08
C=CCN(C(=O)CSc1nc2[nH]ncc2c(=O)n1-c1ccc(Cl)cc1)c1ccccc1 | -2.87 | x
Cc1c(C(=O)N2CCOCC2)oc2c1-c1nn(CC(=O)NCc3ccco3)cc1CC2 | x | 2.06
CCCCNc1ncnc2c1cnn2-c1ccc(C)c(C)c1 | x | 1.04
COc1ccccc1C1CC(c2ccc(Cl)cc2)=NN1S(=O)(=O)c1ccccc1 (centres undefined) | 1.19 | x
O=C(Nc1ccc(Br)cc1F)c1cc(CN2CCCC2)on1 | x | -0.18
COc1ccc2cc(CCNC(=O)CCC3CCCC3)c(=O)[nH]c2c1 | -2.03 | x
CCCCCCn1c(=O)c2c(nc3n2CCN3c2ccc(F)cc2)n(C)c1=O | x | 1.91
Brc1ccc(C2=Nn3c(nnc3-c3cccs3)SC2)cc1 | x | 0.85
COc1ccc(N2CCN(S(=O)(=O)c3ccc(-c4cnc(C5CC5)o4)cc3)CC2)cc1 | x | 2.19
COC(=O)C1=C(C)NC2=C(C(=O)CC(c3ccccc3)C2)C1c1ccc(O)c(OC)c1 (centres undefined) | 0.01 | x
O=C(O)C1CCCN(C2N=CNc3c2nc2n3CCCCC2)C1 (centres undefined) | 1.39 | 1.38
COc1cnc(CSc2nc(C)cc(C)n2)cc1OCC(=O)N1CCc2ccccc21 | x | 1.34
O=C1Nc2ccc(Cl)cc2C1(O)c1c[nH]c2ccccc12 (centres undefined) | 0.17 | -0.51
Cc1c(-c2nc(-c3ccccc3)no2)nnn1-c1cc(F)ccc1F | x | 0.69
CCN1CCN(C(=O)Cn2c(C)cc(=O)n3nc(-c4cccs4)nc23)CC1 | -0.16 | -1.91
CCOC(=O)CCCN1C(=O)CCn2nc(C)cc21 | -0.98 | 1.46
Cn1c(=O)c2c(nc(CN3CCOCC3)n2Cc2ccc(Cl)cc2)n(C)c1=O | -1.9 | -0.1
COc1ccccc1C1Nc2c(C)cccc2-c2cc(C)nn21 (centres undefined) | -1.66 | 3.01
Cc1ccc(C(=O)COC(=O)CCCC(=O)Nc2ccc(Oc3ccccc3)cc2)cc1[N+](=O)[O-] | 0.55 | x
CCn1nc(C)c([N+](=O)[O-])c1-c1nnnn1-c1ccc(Cl)cc1 | -1.31 | x
COc1ccc(S(=O)(=O)N2CCC(c3nnc(-c4ccccc4OC)o3)CC2)cc1OC | -2.08 | 0.1
Cc1ccccc1-c1noc(-c2nnn(-c3ccccc3C)c2N)n1 | x | 0.78
CN(C)c1nc2n(c(=O)c1Cc1ccccc1)CCCS2 | -0.49 | -0.98
CCOc1ccc(S(=O)(=O)[C@H]2CS(=O)(=O)C[C@@H]2NCc2ccncc2)cc1 | 0.66 | 2.16
O=C(O)c1cccc(-c2nc3ccccc3[nH]2)c1 | -2.07 | x
O=C(CCCn1ncn2c(cc3occc32)c1=O)NCc1cccc(Br)c1 | -2.56 | 1.96
CCc1ccc2oc(C(=O)Nc3nnc(C)s3)cc(=O)c2c1 | -1.67 | 1.52
CCc1cccc(NS(=O)(=O)c2c(C)nc3scc(C)n3c2=O)c1 | -1.53 | 1.03
CCOC(=O)C1=C(C)NC(=O)NC1c1c(C)nn(C)c1Cl (centres undefined) | -1.4 | x
CCCCNC(=O)C1CCN(S(=O)(=O)c2ccc3c(c2)CC(C)N3C(=O)C2CC2)CC1 (centres undefined) | x | 0.44
Cc1ccc(CNC2=C(c3ccccc3)C(=O)c3ccccc32)cc1 | -2.14 | 3.16
O=C(NC1CCCCCCC1)c1cccn2c(=O)c3c4c(sc3nc12)CCCC4 | -1.65 | x
Cc1nc(Nc2ccc(O)cc2)cc(-c2ccccc2)n1 | -1.62 | 1.88
COC(=O)c1ccc(CSc2nc(C)nc3c2c(=O)n(C)c(=O)n3C)o1 | -0.35 | x
CN(CC(=O)Nc1ccc(Cl)cc1)S(=O)(=O)c1cnc[nH]1 | -1.12 | 1.32
Cc1ccc2nc(NC(=O)c3cc4c(=O)n5ccccc5nc4n3C)sc2c1 | x | 1.97
CC1CCc2c(sc(NC(=O)c3cccs3)c2C(=O)O)C1 (centres undefined) | -0.34 | -0.86
CNC(=O)c1ccc(CN2C(=O)C(C)=C(c3ccc(C)c(C)c3)S2(=O)=O)cc1 | x | 1.4
O=C(Cn1cnc(S(=O)(=O)N2CCOCC2)c1)NCc1ccc2c(c1)OCO2 | x | -1.16
O=C(Cn1cc2c(n1)CCCCC2)N1CCCCC1 | -0.42 | x
CC(C)c1ccc(CN2N=NC3C(=O)N(c4ccc(F)cc4)C(=O)C32)cc1 (centres undefined) | 0.41 | 1.59
CN(CCNC(=O)c1noc2c1CSc1ccccc1-2)Cc1ccccc1 | -0.77 | 0.48
Cc1ccc2c(c1)N(C(=O)N1CCCC(C(=O)O)C1)CC(C)O2 (centres undefined) | 1.1 | 0.28
COc1ccccc1NCC(O)Cn1c2ccc(Cl)cc2c2cc(Cl)ccc21 (centres undefined) | -1.65 | x
CCOC(=O)c1cnc(NNC(=O)c2cccc(C)c2)nc1C(F)(F)F | -1.78 | x
CCCOC(=O)COc1ccc2c(=O)c(Oc3ccc(OC)cc3)c(C(F)(F)F)oc2c1 | -0.21 | 0.78
CCOC(=O)c1cn(CC)c2cc(N3CCN(C)CC3)c(F)cc2c1=O | -0.32 | x
Cc1cc2nc(-c3cccc(Br)c3)cc(C(F)(F)F)n2n1 | 0.14 | -0.26
CCc1ccc(Cn2nnc(C(=O)O)c2C(=O)O)cc1 | -1.34 | -0.6

Continued.
SMILES | CDC25B-CDK2 inh | HIV TAR-Tat
O=C(CCCc1nnc2n3nc(-c4ccccc4)nc3c3ccccc3n12)NCCN1CCCC1 | 0.24 | 1.5
O=C(NC1CCCCC1)C1CCn2c(nc3ccccc32)C1 (centres undefined) | x | 0.69
Clc1ccc(Nc2nnns2)cc1 | -0.53 | 0.18
O=C(c1cc2c(s1)-c1ccccc1OC2)N1CCN(C2CCCCC2)CC1 | 0.48 | 0.7
CC(C)Cn1cc(NC(=O)NCCCN2CCC(N3CCCCC3)CC2)c2ccccc2c1=O | x | 0.81
CCCS(=O)(=O)NCc1nnnn1-c1ccc(C)cc1 | x | 0.94
C=CCn1c(SCC(=O)N2CCCC2)nc2cc(C(=O)N3CCC(C(N)=O)CC3)ccc2c1=O | x | 1.44
Cc1[nH]nc2c1C(c1cccc(F)c1)N(c1ccc(Br)cc1)C2=O (centres undefined) | x | -0.63
CN1C(=O)C2CCCCN2c2ccc(C(=O)NC3CCCC3)cc21 (centres undefined) | x | 1.48
CCOC(Cc1nnc(SCC(=O)c2ccccc2)n1C)OCC | -0.43 | x
CCN(CC)CCCn1c(C)c(C)c2c1ncn1nc(-c3ccc(OC)cc3)nc21 | 0.16 | 1.94
CCCCNC(=O)c1noc(C)c1Cn1nc(C)cc1C | x | 1.64
CC1(C)CC(=O)c2cc(OCC(=O)NCC3CCCO3)ccc2O1 (centres undefined) | 0.56 | x
CCCn1c2ccccc2c2cnn(CC(=O)N(CC)CC)c(=O)c21 | x | 0.22
Cc1ccc(N2C(N)=C(C#N)C(c3ccc4c(c3)OCO4)C3=C2CC(C)(C)CC3=O)cc1 (centres undefined) | -1.13 | x
Cn1c(=O)c2c(SCC(=O)NC3CCCCC3)nc(-c3ccco3)nc2n(C)c1=O | -1.04 | x
O=C(C1CCC(=O)N1C1CCCC1)N1CCNc2ccccc2C1 (centres undefined) | -0.19 | 0.41
O=C(Nc1cccc(Cl)c1)Nc1nnc(CC(=O)N2CCc3ccccc32)s1 | x | 0.69
CC1(c2cccs2)CC(c2cccs2)=Nc2ccccc2N1 (centres undefined) | -2.39 | -0.41
COc1ccc(N=C=Nc2ccc(OC)cc2)cc1 | -1.36 | x
COc1ccc(-c2nn(Cc3cc(C)ccc3C)c(=O)c3noc(C)c23)cc1 | x | -0.8
Cc1cc(C)n(CC(=O)NCc2cccs2)c(=O)c1C#N | x | 1.12
Cn1c(NCc2ccco2)nc2c1c(=O)n(Cc1ccccc1)c(=O)n2C | -0.45 | -0.02
O=C(O[C@@H]1CSSC[C@H]1OC(=O)c1ccccc1)c1ccccc1 | -2.7 | x
O=S1(=O)C[C@H](N2CCN(c3cccc(Cl)c3)CC2)[C@@H](S(=O)(=O)c2ccccc2)C1 | -0.72 | -0.7
CCOC(=O)N1CCC(NC(=O)C2c3ccccc3C(=O)N3CCc4ccccc4C23)CC1 (centres undefined) | 0.13 | 2.39
Cc1cc2nc(C)c(C)nc2cc1C | -1.22 | x
CCOC(=O)C1=C(C)N=C2SCC(=O)N2C1c1cccc(OC)c1OC (centres undefined) | -1.53 | -3.13
Cc1cc(C)nc(NC2=NCC(=O)N2c2ccc3c(c2)OCCO3)n1 | 2.86 | x
COc1cc2cc(CO)c(=O)[nH]c2cc1OC | 1.11 | 0.4
COc1ccc2sc(N(Cc3cccnc3)C(=O)c3ccc4c(c3)OCCO4)nc2c1 | x | 0.45
CCCSc1nc2c(c(=O)[nH]1)C(c1sccc1C)C(C(=O)OC(C)C)=C(C)N2 (centres undefined) | -0.6 | 1.22
CS(=O)(=O)N1CCN(c2ccc(NC(=O)CN3C(=O)c4ccccc4S3(=O)=O)cc2)CC1 | 1.17 | 0.69
CCOc1ccc(S(=O)(=O)[C@H]2CS(=O)(=O)C[C@@H]2N2CCN(Cc3ccccc3)CC2)cc1 | -1.21 | -0.62
Cc1cc(N2CCOCC2)nc(N2CCN(C(=O)Nc3ccc(F)cc3)CC2)n1 | x | 1.53
CC1(C)CC(=O)C2=C(C1)Nc1ccccc1N(CC(=O)Nc1nccs1)C2c1cccs1 (centres undefined) | x | 2.98
O=S1(=O)C[C@H](NCCc2ccccc2F)[C@@H](S(=O)(=O)c2ccccc2)C1 | -0.05 | 0.09
Cc1ccc(C)c(-c2cc(C(=O)OCC(=O)c3ccc(Cl)c([N+](=O)[O-])c3)c3ccccc3n2)c1 | -4.96 | x
COc1cc(C)ccc1OCCSc1nnc(-c2ccc(C)cc2)o1 | -0.91 | 2.76
Cc1cccn2c(=O)c(NC(=O)c3ccc(C(C)(C)C)cc3)cnc12 | -0.73 | 0.54
CCOC(=O)Cc1nc2c3c4c(sc3nc(C)n2n1)COC(C)(C)C4 | 0.65 | -0.01
N#Cc1c(C(F)(F)F)c([N+](=O)[O-])c(-c2cccc([N+](=O)[O-])c2)[nH]c1=O | -0.17 | x
COc1ccc(C2C3=C(CCCC3=O)Nc3nc(SCc4ccccc4C)nn32)cc1OC (centres undefined) | -1.32 | 0.79
CC1(C)CC(=O)C2=C(C1)Nc1ccccc1N(CC(=O)NC1CCCC1)C2c1cccs1 (centres undefined) | x | 1.74
CCOC(=O)C1=C(C)NC2=C(C(=O)CC(c3ccccc3)C2)C1c1cc(C)sc1SC (centres undefined) | -2.46 | 2.66
O=C1/C(=C\c2ccco2)N2CCC1CC2 | -1.83 | x
O=S(=O)(c1ccc(C2CCCCC2)cc1)N1CCC(c2ccncc2)CC1 | x | 2.31
O=c1sc2ccccc2n1CCOc1ccccc1Cl | -0.75 | 1.89
O=C1CCSc2ccc(S(=O)(=O)NCCN3CCc4ccccc4C3)cc2N1 | x | 0.93
COC(=O)c1cc(=O)c2cc(OC)c(OC)cc2[nH]1 | -0.9 | -0.26

Bioassay records deposited in PubChem by Center for Chemical Genomics, University of Michigan.
